High-throughput results as filed in PubChem.
Ecoli rRNA inh = inhibits bacterial ribosomal RNA function over humanized ribosomes. hit rate 1.6% among 350,000. E. coli WT GFP vs humanized-ribosome RFP mutants, fluorescence, 24 h; stronger effect = lower value; DMSO median 0, no signal -100. GFP signal change (wild-type ribosome), % (test concentration not listed);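 active means significant combined selectivity score with lowered wild-type GFP, culture density cut under 30%, mutant RFP and density less affected; inactive means any of these conditions unmet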; further: one replicate is shown; some compounds called inactive have numbers as strong as hits
ALR H2O2 inh = blocks human ALR sulfhydryl oxidase activity; inhibition, % (test concentration not listed); purified ALR, DTT oxidation, H2O2 HRP-luminol luminescence; P55789; hit rate 3.8% among 290,000; AID 485317;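 active means mean and each replicate at 75% or more; inconclusive means only one of the two met; inactive means neither met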;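 further: stock transfer was 7.5 nL into about 7.5 µL; 0% = neutral wells and 100% = wells with inactivated enzyme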
Target sequence (P55789 whole entry, looked up): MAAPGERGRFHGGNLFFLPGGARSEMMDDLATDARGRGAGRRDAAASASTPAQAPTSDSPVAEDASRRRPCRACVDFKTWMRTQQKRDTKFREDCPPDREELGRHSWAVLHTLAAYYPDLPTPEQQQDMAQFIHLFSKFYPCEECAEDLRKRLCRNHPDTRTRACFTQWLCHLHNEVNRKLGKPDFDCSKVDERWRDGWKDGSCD
FGF22 binding = shifts melting point of recombinant human FGF22; hit rate 1.5% among 340,000; AID 651658; recombinant FGF22 thermal shift, SYPRO orange fluorescence; percent of sucrose octasulfate shift, DMSO zero; Q9HCT0; calls only at 9.99 µM;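 active means melting point raised past a set limit in the mean and every replicate; inconclusive means no clear call; three in four hits are not shown here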
Target sequence (Q9HCT0 whole entry, looked up): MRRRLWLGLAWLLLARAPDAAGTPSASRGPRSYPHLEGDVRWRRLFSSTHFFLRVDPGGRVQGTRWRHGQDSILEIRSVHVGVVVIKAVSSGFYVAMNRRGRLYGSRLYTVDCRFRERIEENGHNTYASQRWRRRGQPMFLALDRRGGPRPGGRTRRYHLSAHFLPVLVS
E coli growth = E. coli growth inhibition. OD600 absorbance (no concentration beside the values). AID 1053175. Escherichia coli growth, OD600, 23 h; stronger effect = lower value. hit rate 0.21% among 330,000;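 active means OD600 absorbance below the run mean of sample wells minus 3.6 SD, in any replicate, cut at about 0.56 in these data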;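 further: stock transfer was 300 nL into about 60 µL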
HNF4A DNA FP = change in binding of human HNF4 alpha to DNA; HNF4a-FITC DNA binding, fluorescence polarization, 1 h; activity change, % at 10 µM; P41235; hit rate 0.3% among 360,000; in the data active means activity change above about 30%, passing the limit was not always enough;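 further: controls were the assay level and a saturating level of protein; the project sought stronger binding though the title names inhibitors; some compounds called inactive have numbers as strong as hits; positive values seem to mean higher polarization but the record does not say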
Vif A3G = HIV-1 Vif–A3G interaction blockers – biochemical, TR-FRET, GST-Vif 1-94, biotin-A3G peptide, dose response retest, primary screen (AID 1117319) | one-dose inhibition, %; IC50 in µM for titrated hits | hit rate 0.57% among 260,000 | TR-FRET GST-Vif / biotin-A3G peptide binding; higher % means a stronger effect; test concentration not given here; strong numbers were not always called active;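 active means above the screen mean plus three standard deviations and confirmed in dose response; inconclusive means results disagree or hit not tested in dose response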;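 further: Vif residues 1-94 fused to GST binding biotinylated APOBEC3G peptide 110-148; 0% = full assay without inhibitor and 100% = GST in place of GST-Vif; retest series ran down from 100 µM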
MLL AF4-AF9 inh = blocks AF4 peptide binding to human AF9; AlphaScreen, biotin-AF4 peptide binding to FLAG-AF9; P42568; inhibition, % at 10 µM; hit rate 0.47% among 350,000;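 active means every replicate reaching a set inhibition limit, whatever the replicate mean, cut at about 25% in these data; inconclusive means mean inhibition reaches that limit but some replicates miss it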;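 further: 0% = plate neutral control median and 100% = total signal loss; the record names both 10 and 1 µM as test concentration; the first replicate is given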
Target sequence (P42568 whole entry, looked up): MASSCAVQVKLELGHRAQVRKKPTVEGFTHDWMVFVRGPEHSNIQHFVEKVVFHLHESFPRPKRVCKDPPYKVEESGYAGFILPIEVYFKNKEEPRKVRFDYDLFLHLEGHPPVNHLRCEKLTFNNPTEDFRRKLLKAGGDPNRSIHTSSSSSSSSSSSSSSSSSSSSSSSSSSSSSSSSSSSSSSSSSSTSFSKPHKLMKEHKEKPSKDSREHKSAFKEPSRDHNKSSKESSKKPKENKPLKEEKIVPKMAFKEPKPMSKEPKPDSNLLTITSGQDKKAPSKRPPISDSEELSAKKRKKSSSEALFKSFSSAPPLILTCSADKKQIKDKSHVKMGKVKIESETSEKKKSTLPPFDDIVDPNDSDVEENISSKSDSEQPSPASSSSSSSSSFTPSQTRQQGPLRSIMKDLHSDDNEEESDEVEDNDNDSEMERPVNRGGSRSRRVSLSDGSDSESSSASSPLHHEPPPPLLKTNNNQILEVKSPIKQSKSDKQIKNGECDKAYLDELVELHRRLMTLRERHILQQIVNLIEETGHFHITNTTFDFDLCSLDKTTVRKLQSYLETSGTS
Ecoli rRNA inh OD600 = also measured in Ecoli rRNA inh; calls as there; OD600 change, %; measured here: OD600 growth;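 optical density of the mix in the first replicate; 0 = DMSO median and -100 = no signal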
Ecoli rRNA inh RFP = further read-out of Ecoli rRNA inh, marked with its call; RFP signal change, %; measured here: RFP humanized mutant strains;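 first replicate; 0 = DMSO median and -100 = no signal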
* hit, by the source's call; & = joins results of further samples. Some of the compounds tested; count on the stated rates, not on these rows.

Screening COc1ccc2[nH]c3c(c2c1)CCN1C(=O)C(CC(=O)NCc2ccc(OC)c(OC)c2)C[C@H](C(=O)N2CCOCC2)[C@@]31C (some centres not stated) returned Ecoli rRNA inh 9, FGF22 binding inactive, E coli growth 0.71, HNF4A DNA FP 0.3, MLL AF4-AF9 inh -5.8, Ecoli rRNA inh OD600 27 and Ecoli rRNA inh RFP -2.9.
Screening C[C@H]1CN([C@@H](C)CO)C(=O)c2cc(NC(=O)CCCN(C)C)ccc2O[C@H]1CN(C)Cc1ccccc1 returned Ecoli rRNA inh 3, FGF22 binding inactive, MLL AF4-AF9 inh -2.9, Ecoli rRNA inh OD600 -3 and Ecoli rRNA inh RFP -2.8.
`COc1ccc(C/C(N)=N/n2cnnc2)cc1Cl` gave ALR H2O2 inh -7, E coli growth 0.73, HNF4A DNA FP -1.1 and Vif A3G 4%.
For CO[C@H]1CN(C)C(=O)c2cc(NC(=O)Cc3ccccc3)ccc2OC[C@@H](C)N(C(C)=O)C[C@H]1C the results were Ecoli rRNA inh -1, FGF22 binding inactive, MLL AF4-AF9 inh 0.7, Ecoli rRNA inh OD600 -2 and Ecoli rRNA inh RFP 7.0.
CCCCn1c(N)c(N(CC(C)C)C(=O)C2CCN(S(=O)(=O)c3ccc(OCC)cc3)CC2)c(=O)[nH]c1=O was read as Ecoli rRNA inh 10, ALR H2O2 inh 0, FGF22 binding inactive, E coli growth 0.67, HNF4A DNA FP -3.0, Vif A3G 3%, MLL AF4-AF9 inh -0.9, Ecoli rRNA inh OD600 -6 and Ecoli rRNA inh RFP 1.1.
For CC(C)(C)OC(=O)CNC(=O)c1nc[nH]c1C(=O)N1CCN(c2ccccc2)CC1 the results were Ecoli rRNA inh 3, ALR H2O2 inh 47, FGF22 binding inactive, HNF4A DNA FP 2.5, MLL AF4-AF9 inh -1.5, Ecoli rRNA inh OD600 15 and Ecoli rRNA inh RFP 4.3.
For COc1ccc(C2=NOC(Cn3nc(C(=O)NCc4ccc5c(c4)OCO5)cc3-c3ccccc3)C2)cc1 (configuration not stated) the results were Ecoli rRNA inh 11, ALR H2O2 inh 0, FGF22 binding inactive, E coli growth 0.71, HNF4A DNA FP 6.2, MLL AF4-AF9 inh -11, Ecoli rRNA inh OD600 12 and Ecoli rRNA inh RFP 6.7.
CCN(CC)C(=O)Cn1cc(S(=O)(=O)CC(=O)N2CCCCCC2)c2ccccc21 was read as Ecoli rRNA inh 9, ALR H2O2 inh 53, FGF22 binding inactive, E coli growth 0.69, HNF4A DNA FP -1.6, Vif A3G 8%, MLL AF4-AF9 inh 1.9, Ecoli rRNA inh OD600 6 and Ecoli rRNA inh RFP -6.1.
`O=C(NC1(C(F)(F)F)C(=O)Nc2c1c(=O)[nH]c(=O)n2-c1ccccc1)c1ccncc1` (configuration not stated) gave ALR H2O2 inh -4, E coli growth 0.72, HNF4A DNA FP -2.6 and Vif A3G -5%.
Screening O=C(Cc1c(F)cccc1Cl)Nc1ccc(S(=O)(=O)Nc2nccs2)cc1 returned Ecoli rRNA inh -2, ALR H2O2 inh -2, FGF22 binding inactive, E coli growth 0.67, HNF4A DNA FP -0.8, MLL AF4-AF9 inh -1.2, Ecoli rRNA inh OD600 7 and Ecoli rRNA inh RFP 0.0.
`COc1ccc(S(=O)(=O)Nc2ccc3c(c2)C(=O)N([C@@H](C)CO)C[C@H](C)[C@@H](CN(C)C(=O)Nc2c(C)noc2C)O3)cc1` gave Ecoli rRNA inh 4, FGF22 binding inactive, MLL AF4-AF9 inh -3.2, Ecoli rRNA inh OD600 2 and Ecoli rRNA inh RFP -2.0.
Cc1cc(OCc2ccc(C(=O)n3cccn3)o2)ccc1Cl was read as ALR H2O2 inh -5, E coli growth 0.69, HNF4A DNA FP 2.9 and Vif A3G inconclusive.
For Cc1ccc(C(=O)Nc2nc3ccc(S(C)(=O)=O)cc3s2)o1 the results were E coli growth 0.69, HNF4A DNA FP -0.2 and Vif A3G -6%.
COc1cccc(C(=O)Nc2ccc(F)cc2F)c1 was read as ALR H2O2 inh 8, E coli growth 0.69, HNF4A DNA FP 2.8 and Vif A3G -2%.
c1ccc(OCc2noc(CN3CCC(C4CCCCC4)C3)n2)cc1 (configuration not stated) was read as Ecoli rRNA inh -31, ALR H2O2 inh -5, FGF22 binding inactive, E coli growth 0.69, HNF4A DNA FP 1.4, Vif A3G 4%, MLL AF4-AF9 inh 1.2, Ecoli rRNA inh OD600 -39 and Ecoli rRNA inh RFP 2.4.
Cc1onc(-c2ccccc2Cl)c1C(=O)NCc1ccc(F)cc1 was read as Ecoli rRNA inh -2, ALR H2O2 inh 0, FGF22 binding inactive, E coli growth 0.72, HNF4A DNA FP -0.5, MLL AF4-AF9 inh 0.9, Ecoli rRNA inh OD600 4 and Ecoli rRNA inh RFP -2.9.
`CC(NC(=O)Cc1ccccc1)C(=O)O` (configuration not stated) gave Ecoli rRNA inh 7, ALR H2O2 inh 2, FGF22 binding inactive, E coli growth 0.69, HNF4A DNA FP 1.1, Ecoli rRNA inh OD600 7 and Ecoli rRNA inh RFP 0.1.
For CC(C)(C)NC(=O)NC(=O)Cn1ccsc1=N the results were Ecoli rRNA inh 28, FGF22 binding inactive, E coli growth 0.68, HNF4A DNA FP 3.0, MLL AF4-AF9 inh -1.6, Ecoli rRNA inh OD600 6 and Ecoli rRNA inh RFP 4.0.
Screening CCOc1ccc(S(=O)(=O)N2CCN(C(=O)COc3ccc(Br)cc3)CC2)cc1 returned Ecoli rRNA inh 7, ALR H2O2 inh -7, FGF22 binding inactive, E coli growth 0.64, HNF4A DNA FP 6.0, MLL AF4-AF9 inh -15, Ecoli rRNA inh OD600 12 and Ecoli rRNA inh RFP 1.0.
CCc1sc(NC(=O)CCC(=O)O)nc1-c1cc2ccccc2oc1=O was read as Ecoli rRNA inh 1, ALR H2O2 inh 23, FGF22 binding inactive, E coli growth 0.68, HNF4A DNA FP 1.0, Vif A3G -14%, MLL AF4-AF9 inh -1.6, Ecoli rRNA inh OD600 -1 and Ecoli rRNA inh RFP -5.9.
Screening C[C@H]1CCCCO[C@H](CN(C)C(=O)C2CCCCC2)[C@@H](C)CN([C@@H](C)CO)C(=O)c2cc(NC(=O)Nc3ccc(F)cc3)ccc2O1 returned Ecoli rRNA inh -5, FGF22 binding inactive, MLL AF4-AF9 inh 5.8, Ecoli rRNA inh OD600 -4 and Ecoli rRNA inh RFP 1.6.
Screening CCn1c(SCC(=O)N2CCOCC2)nc2oc3c(Cl)cc(Cl)cc3c(=O)c2c1=O returned ALR H2O2 inh 11, E coli growth 0.66 and Vif A3G 13%.
For COc1ccc2c3c([nH]c2c1)[C@@H](CO)N(S(C)(=O)=O)CC31CCN(C(=O)c2ccncc2)CC1 the results were Ecoli rRNA inh -1, FGF22 binding inactive, MLL AF4-AF9 inh 1.8, Ecoli rRNA inh OD600 -8 and Ecoli rRNA inh RFP 1.3.
`Cc1ccc(NC(=O)CN(C)C(=O)Cc2ccccc2F)cc1` gave Ecoli rRNA inh 0, FGF22 binding inactive, E coli growth 0.67, HNF4A DNA FP -0.6, MLL AF4-AF9 inh -3.5, Ecoli rRNA inh OD600 9 and Ecoli rRNA inh RFP 2.0.
`O=C1CN(C(=O)CSc2nncn2-c2ccccc2)c2ccccc2N1` gave ALR H2O2 inh -4, E coli growth 0.7, HNF4A DNA FP -3.6 and Vif A3G 2%.
For C[C@H]1CN([C@@H](C)CO)C(=O)c2cccc(NC(=O)C3CCOCC3)c2O[C@H]1CN(C)Cc1ccc(Oc2ccccc2)cc1 the results were Ecoli rRNA inh -5, FGF22 binding inactive, MLL AF4-AF9 inh -16, Ecoli rRNA inh OD600 -21 and Ecoli rRNA inh RFP 0.4.
For O=C(CN1CCN(c2ccc([N+](=O)[O-])cc2)CC1)c1ccccc1 the results were Ecoli rRNA inh 1, FGF22 binding inactive, E coli growth 0.71, HNF4A DNA FP -0.1, Vif A3G 6%, MLL AF4-AF9 inh 4.8, Ecoli rRNA inh OD600 7 and Ecoli rRNA inh RFP 1.9.
O=c1oc2ccc(Br)cc2cc1S(=O)(=O)c1ccc(F)cc1 was read as ALR H2O2 inh -2, E coli growth 0.7 and HNF4A DNA FP -0.2.
O=C1CCN(CCc2ccccc2)CCN1[C@H](CSc1ccccc1)c1ccccc1 was read as Ecoli rRNA inh -29, FGF22 binding inactive, HNF4A DNA FP 3.5, MLL AF4-AF9 inh 8.7, Ecoli rRNA inh OD600 -46 and Ecoli rRNA inh RFP -12.
O=C(CCc1ccccc1)NCC(c1ccco1)N1CCc2ccccc21 (configuration not stated) was read as Ecoli rRNA inh -31, ALR H2O2 inh 98*, FGF22 binding inactive, E coli growth 0.69, HNF4A DNA FP 2.9, Vif A3G 5%, MLL AF4-AF9 inh 7.4, Ecoli rRNA inh OD600 -43 and Ecoli rRNA inh RFP -6.9.
For CCOC(=O)CSc1nc2ccccc2c(=O)n1NC(=O)c1ccccc1 the results were ALR H2O2 inh 1, E coli growth 0.69, HNF4A DNA FP 4.6 and Vif A3G 3%.
`CCOC(=O)c1c(C)nc2sc(C(=O)Nc3ccc(OC)cc3)c(N)c2c1-c1ccc(OC)cc1` gave ALR H2O2 inh -15, E coli growth 0.68, HNF4A DNA FP -1.7 and Vif A3G -8%.
Cc1ccnc(NS(=O)(=O)c2ccc(NC(=O)c3cc(-c4ccc(Br)cc4)nc4ccccc34)cc2)n1 was read as Ecoli rRNA inh 10, ALR H2O2 inh -1, FGF22 binding inactive, HNF4A DNA FP 2.9, Vif A3G -26%, MLL AF4-AF9 inh 4.2, Ecoli rRNA inh OD600 15 and Ecoli rRNA inh RFP -1.3.
`CC1(C(=O)NCc2ccc(F)c(F)c2)Cc2c(-c3cccc(C(F)(F)F)c3)ccnc2O1` (configuration not stated) gave Ecoli rRNA inh 9, FGF22 binding inactive, HNF4A DNA FP 0.8, MLL AF4-AF9 inh -1.2, Ecoli rRNA inh OD600 -26 and Ecoli rRNA inh RFP 45.
`CC(C)NC(=O)Nc1nnc([C@H]2C[C@H](O)[C@@H](CO)O2)s1` gave FGF22 binding inactive, HNF4A DNA FP 0.6 and MLL AF4-AF9 inh -3.6.
`C[C@H]1CN([C@@H](C)CO)C(=O)c2cc(NC(=O)Cn3cnnn3)ccc2O[C@@H]1CN(C)C(=O)Nc1cccc2ccccc12` gave Ecoli rRNA inh 3, FGF22 binding inactive, MLL AF4-AF9 inh -3.6, Ecoli rRNA inh OD600 11 and Ecoli rRNA inh RFP 1.5.
COc1cccc2cc(/C(C)=N/NC(=O)c3ccco3)oc12 was read as Ecoli rRNA inh 11, ALR H2O2 inh -1, FGF22 binding inactive, HNF4A DNA FP 0.7, Vif A3G 6%, MLL AF4-AF9 inh -0.4, Ecoli rRNA inh OD600 -2 and Ecoli rRNA inh RFP 0.5.
Screening COC(=O)CN1C(=O)COc2ccc(S(=O)(=O)N3CCOCC3)cc21 returned Ecoli rRNA inh 8, ALR H2O2 inh -6, FGF22 binding inactive, E coli growth 0.66, HNF4A DNA FP 0.1, Vif A3G -3%, MLL AF4-AF9 inh -3.9, Ecoli rRNA inh OD600 2 and Ecoli rRNA inh RFP 0.3.
`C[C@@H]1CCCCO[C@H](CN(C)C(=O)Nc2ccc3c(c2)OCO3)[C@H](C)CN([C@@H](C)CO)C(=O)c2cc(NS(=O)(=O)c3ccc(Cl)cc3)ccc2O1` gave Ecoli rRNA inh 15&-2, FGF22 binding inactive, HNF4A DNA FP -0.8, Vif A3G -6%, MLL AF4-AF9 inh 2.4&-9.0, Ecoli rRNA inh OD600 2&-4 and Ecoli rRNA inh RFP 3.1&0.5.
